# N370S GC mod: inhibitors or activators of N370S glucocerebrosidase for Gaucher disease. P04062. N370S GC spleen homogenate, 4MU-glucoside fluorescence. Potency, µM (titrated, usually from 59.4 µM), for inactives: top-dose activity change, negative = inhibition, usual class: inhibitors. 330,000 tested, 0.092% active;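 further: 0% = full enzyme activity and -100% = no enzyme basal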
# FEN1 inhibitor: human FEN1 inhibition; P39748; Recombinant FEN1 flap cleavage, fluorescence, 15 min; Potency, µM (top dose mostly 114 µM), inactives show at the highest dose activity change, negative = inhibition, most hits filed as inhibitors; 390,000 tested, 0.35% active; further: nearly all actives have a fitted effect of over 65% in size
# Target sequence (P39748 whole entry, looked up): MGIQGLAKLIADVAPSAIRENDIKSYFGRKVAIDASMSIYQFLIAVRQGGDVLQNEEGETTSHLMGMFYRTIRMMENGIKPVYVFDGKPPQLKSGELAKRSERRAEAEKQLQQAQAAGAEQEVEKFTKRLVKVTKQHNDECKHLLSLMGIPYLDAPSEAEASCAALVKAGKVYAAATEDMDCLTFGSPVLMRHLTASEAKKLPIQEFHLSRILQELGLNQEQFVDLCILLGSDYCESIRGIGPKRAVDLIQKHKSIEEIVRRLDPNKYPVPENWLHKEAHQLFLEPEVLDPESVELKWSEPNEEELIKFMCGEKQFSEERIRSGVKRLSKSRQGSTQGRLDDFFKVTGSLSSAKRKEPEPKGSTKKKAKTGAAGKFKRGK
#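 FEN1 at 10 nM, compound pretreatment for 15 min (room temperature), 50 nM final substrate to initiate; endpoint reads at 0 and 15 min; DMSO-only plates used as vehicle background.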
# Active calls of the source: *; ? = inconclusive; · = no result given; & = joins results of further samples; [ ] = dose if it differs, or a comment. The call rests on the fitted dose curve; in most records, active means well fitted curve in the direction sought with a large enough effect; inconclusive means small, poorly fitted or top-dose-only effect, or another doubt; inactive means no such curve, though single readings can be large; an effect the other way counts as inactive or inconclusive. Unless noted, on the % scale 0 is the no-effect control and ±100 the full control effect; potency means the concentration at half of the fitted maximal effect.
# Under each structure – N370S GC mod	FEN1 inhibitor
1: O=C(CCN1C(=O)c2ccccc2C1=O)NCc1ccc(Cl)cc1
    -6%	4%
2: COc1ncc2ncc(=O)n(C3CC3)c2n1
    -2%	·
3: Cc1ccc(C)c(C(C)NC(=O)CC#N)c1 (stereo not given)
    -4%	7%
4: Cc1ccc(OCC(=O)Nc2ccc(N3CCN(C(=O)c4ccco4)CC3)cc2)c(C)c1
    -2%	-4%
5: Cc1ccc(S(=O)(=O)N2CCC(N3CCN(Cc4ccccc4)C(=O)C3=O)CC2)cc1C
    ·	1%
6: Cc1cc(C)nc(NC(=O)c2ccc(Cl)c([N+](=O)[O-])c2)n1
    -1%	-2%
7: Cc1nnc(SCC(=O)Nc2ccccc2N2CCOCC2)s1
    13%	-5%
8: COC(=O)[C@H](Cc1ccccc1)[C@@H](C)OS(N)(=O)=O
    -6%	-2%
9: Cc1ccc(Cl)cc1N1CCN(C(=O)CN2C(=O)c3cccc4cccc2c34)CC1
    21%	-11%
10: Cc1ccc(NC(=O)CCCn2c(=O)[nH]c3ccsc3c2=O)cc1
    -5%	6%
11: COc1ccc(OC)c(CNC(=O)c2ccc(C)c(NC(=O)C3=C(C)OCCS3)c2)c1
    -1%	-16%
12: CCSc1nnc(NC(=O)CSc2nnc(CNC(=O)c3ccc(OC)cc3)o2)s1
    1%	2%
13: CN1C(=O)S/C(=C/c2cccn2-c2cccc(C(=O)O)c2)C1=O
    -15%	-22%
14: O=C(c1ccc2c(c1)CCN2S(=O)(=O)c1ccccc1)N1CCN(c2ccccc2)CC1
    -6%	-12%
15: COC(=O)c1c(N=CN(C)C)c(C#N)c2n1CCCC2
    -6%[2.35 µM]	-9%
16: CCN(CC)CCNC(=O)c1ccc(Cl)c(S(=O)(=O)N2CCCCCC2)c1
    4%	-2%
17: O=C1CN(CC(=O)NC(=O)NCc2ccccc2)CCN1
    4%	9%
18: O=C(CN1C(=O)CCSc2ccc(S(=O)(=O)N3CCCC3)cc21)Nc1ccccc1Cl
    4%	8%&0%
19: CCOc1ccc(C(c2c(O)cc(C)n(CCOC)c2=O)N2CCC(C)CC2)cc1 (stereo not given)
    ·	-11%
20: COc1ccc(C(=O)/C=C(\C)Nc2ccc3c(c2)OCO3)cc1
    7%	6%
21: CC(=O)Nc1ccc(Nc2nc3c(S(=O)(=O)c4ccc(C)c(C)c4)nnn3c3ccccc23)cc1
    17%	1%
22: CSc1sc(C(=O)N2CCc3ccccc32)cc1S(=O)(=O)C(C)C
    -15%	7%
23: CSCCC(NC(=O)COc1ccccc1)C(=O)Nc1ccc(C)cc1 (stereo not given)
    4%	5%
24: NS(=O)(=O)c1ccc(CNS(=O)(=O)c2ccc(Cl)nc2)cc1
    -3%	19%
25: CC(C)NC(=O)N1CC2(CCN(C(=O)c3ccco3)CC2)C1
    -1%	·
26: CC(C)(C)NC(=O)NC(=O)CN1CCN(C(c2ccccc2)c2ccccc2)CC1
    -6%	-10%
27: COc1ccc(C(=O)NCCc2nnc(SCc3nc4ccccc4c(=O)[nH]3)n2C)cc1
    -3%	-8%
28: O=C(COC(=O)/C=C/c1ccco1)Nc1cccc([N+](=O)[O-])c1
    2%	1%
29: COC(=O)c1sccc1NC(=O)c1ccc(OC)c([N+](=O)[O-])c1
    0%	5%
30: CN(C)C(=O)c1ccc(-c2cncnc2N(C)Cc2ccco2)cc1
    3%	·
31: CC(O)(CS(=O)(=O)Cc1ccc(Cl)cc1)C(=O)Nc1cccc(C(F)(F)F)c1 (stereo not given)
    -3%	6%
32: O=C(NC1CC2CCCC(C1)N2C(=S)NCCc1ccccc1)C1CC1 (stereo not given)
    5%	-20%
33: CC(C)(C)S(=O)(=O)c1cnc2c(S(=O)(=O)c3ccccc3)cnn2c1N
    11%	-12%
34: COc1ccc(N2CCN(c3nc4ccccc4n4c(C)nnc34)CC2)cc1
    ·	22%
35: COc1cc(Cn2c(-c3ccc(O)c(OC)c3)nc3ccccc32)ccc1O
    -8%	2%
36: CC1(c2cccc(Br)c2)NC(=O)N(CC(=O)Nc2cccnc2Cl)C1=O (stereo not given)
    -5%	-8%
37: O=C(N/N=C/c1ccccc1Br)c1cccc(S(=O)(=O)N2CCOCC2)c1
    ·	-3%
38: O=C(CC1C(=O)NCCN1Cc1cccc(F)c1)NC1CCCCC1 (stereo not given)
    -9%	12%
39: Cc1ncc(CO)c2c1OC(C)(C)OC2
    -5%	-1%
40: OC[C@H]1O[C@@H](n2cnc3c(N[C@H]4CC5CCC4C5)ncnc32)[C@H](O)[C@@H]1O (stereo not given in full)
    4%	·
41: CC1Cc2ccccc2N1C(=O)CCN1C(=O)C2C3C=CC(C3)C2C1=O (stereo not given)
    10%	35%
42: Cn1nc(C(F)(F)F)c(C(=O)Nc2ccc(F)cc2F)c1Cl
    1%	-2%
43: CC(=O)Nc1ccc(SCc2ncc(-c3ccccc3)o2)cc1
    3%	-9%
44: COc1ccc2ccccc2c1/C=N/NC(=O)c1ccc(C)nc1
    -2%	-17%
45: COC(=O)COc1ccc(S(=O)(=O)N2CCN(c3ccccc3F)CC2)cc1
    11%	8%
46: COc1ccc(CSc2nc(CSC)cc(N3CCOCC3)n2)cc1
    8%	0%
47: Cc1cc(C(=O)OCC(=O)c2c(N)n(C)c(=O)n(C)c2=O)c(C)n1-c1ccccc1
    -4%	0%
48: COc1ccc(N2CCN(C(=O)CSc3nc4ccccc4c(=O)[nH]3)CC2)cc1
    -1%	-4%
49: O=C(/C=C/c1ccco1)N/C(=C\c1ccco1)C(=O)NCCc1nc2ccccc2[nH]1
    ?	7%
50: CCN(C(=O)CSc1cc(C)c2ccccc2n1)C1CCS(=O)(=O)C1 (stereo not given)
    2%	0%
51: CC(=O)Nc1cccc(-c2nnc(-c3ccc(C)cc3)o2)c1
    -3%	3%
52: CN(c1ccc(C(=O)Nc2ccc3c(c2)OCCO3)cc1)S(C)(=O)=O
    7%	0%
53: CCOC(=O)C1CCN(c2cc3c(cc2NC(=O)c2ccccc2OCC)n(C)c(=O)n3C)CC1
    -8%	-33%
54: NC(=S)NN=C1c2cc(S(=O)(=O)N3CCOCC3)ccc2-c2ccc(S(=O)(=O)N3CCOCC3)cc21
    ·	-12%
55: CCn1c(=O)cc(SCC(=O)N2CCC(C)CC2)c2ccccc21
    10%	-4%
56: COc1ccc(N(C)S(=O)(=O)c2cccc(C(=O)NC3CCCCC3C)c2)cc1 (stereo not given)
    -4%	11%
57: Cc1cccc(-c2nnc(SCC#N)n2-c2cccc(Cl)c2)c1
    8%	-3%
58: O=C(Nc1cccc(S(=O)(=O)N2CCOCC2)c1)c1ccco1
    4%	0%
59: COc1ccccc1CNc1ncncc1-c1ccccc1OC
    -14%	·
60: O=C(NC1CCCCC1)c1ccc2[nH]c(=O)c(=O)[nH]c2c1
    -7%	1%

# Additional structures
# Under each structure – N370S GC mod	FEN1 inhibitor
61: O=C(CCN=C1NS(=O)(=O)c2ccccc21)OCC(=O)c1ccc(F)c(F)c1
    -8%	-14%
62: N#Cc1c(NC(=O)COC(=O)c2ccc(F)cc2)sc2c1CCC2
    1%	-8%
63: O=C(c1nc2ccccc2s1)N1CCN(c2ccccn2)CC1
    -21%	2%
64: Cc1ccc(C(=O)Nc2c(C)cc(C)c3cccnc23)cc1
    -2%	-1%
65: C(=N\Nc1ccccn1)/c1ccc(N2CCOCC2)cc1
    10%	6%
66: CCOc1ccc2oc(C(=O)N3CCN(Cc4ccccc4)CC3)c(C)c2c1
    -8%	-24%
67: CCN(CC)S(=O)(=O)c1ccc(Cl)c(NC(=O)COC(=O)c2c(C)noc2C)c1
    12%	-2%
68: COc1cc2c(cc1NC(=O)Cc1ccc(C)cc1)oc1ccccc12
    7%	-27%
69: CCN(c1ccccc1)S(=O)(=O)c1cc(C(=O)O)ccc1C
    13%	-7%
70: Cc1ccc(CN2C(=O)N/C(=C/c3ccc(-c4ccc(C(=O)O)cc4)o3)C2=O)cc1
    -4%	?
71: Cc1ccc(NC(=O)NC2(C(=O)NCc3ccco3)CCCCC2)cc1
    3%	-2%
72: COC(=O)c1ccc(C)c(NC(=O)CCSc2ccc(C)cc2)c1
    4%	-14%
73: COc1ccccc1NS(=O)(=O)c1cc(N)ccc1N1CCCCC1
    2%	-3%
74: Nc1nc(Cl)cc(Sc2ccc(F)cc2)n1
    3%	-4%
75: O=C(N/N=C/c1ccc([N+](=O)[O-])o1)c1cn(-c2ccccc2)nc1-c1ccc(Cl)cc1
    7%	-9%
76: CNC(=O)Oc1ccc2c(c1)[C@@]1(C)CCN(C)C1N2C (stereo not given in full)
    10%&9%&-1%	·
77: COc1ccccc1/C=N/N1C(=O)c2cccc3cccc(c23)C1=O
    -14%	-2%
78: O=C(Nc1ccncc1)c1cccc(S(=O)(=O)N2CCCC2)c1
    -8%	2%
79: COc1ccccc1NC(=O)c1nn(-c2ccc(Cl)cc2)ccc1=O
    -2%	7%
80: CC(C)CN(CCCNC(=O)CN1C(=O)COc2ccc(S(=O)(=O)N3CCOCC3)cc21)CC(C)C
    -5%	-4%

# The final 7 entries of the part above are carried over, then new ones follow.
# Under each structure – N370S GC mod	FEN1 inhibitor
74: Nc1nc(Cl)cc(Sc2ccc(F)cc2)n1
    3%	-4%
75: O=C(N/N=C/c1ccc([N+](=O)[O-])o1)c1cn(-c2ccccc2)nc1-c1ccc(Cl)cc1
    7%	-9%
76: CNC(=O)Oc1ccc2c(c1)[C@@]1(C)CCN(C)C1N2C (stereo not given in full)
    10%&9%&-1%	·
77: COc1ccccc1/C=N/N1C(=O)c2cccc3cccc(c23)C1=O
    -14%	-2%
78: O=C(Nc1ccncc1)c1cccc(S(=O)(=O)N2CCCC2)c1
    -8%	2%
79: COc1ccccc1NC(=O)c1nn(-c2ccc(Cl)cc2)ccc1=O
    -2%	7%
80: CC(C)CN(CCCNC(=O)CN1C(=O)COc2ccc(S(=O)(=O)N3CCOCC3)cc21)CC(C)C
    -5%	-4%
81: O=C1CCC(C(=O)Nc2cccc(Oc3ccccc3)c2)=NN1
    -7%	-5%
82: Cc1ccc(Cl)cc1NC(=O)CSC(N)=O
    9%	-3%
83: Fc1ccc(-c2nnc3ccc(N4CCc5ccccc5C4)nn23)cc1
    5%	7%
84: CCOC(=O)[C@H]1[C@H]2COc3ccc(Cl)cc3[C@@H]2N2C(=O)c3cc(F)c(F)cc3NC(=O)[C@@]12C
    -15%	7%
85: COC(=O)COc1cccc2c(=O)n(CC(=O)NCc3ccccc3)ccc12
    -1%	-1%
86: COc1ccc(C(C)=O)cc1COC(=O)c1ccc2ccccc2n1
    11%	-10%
87: O=C(CSc1nnc(-c2cccs2)o1)Oc1ccccc1
    ·	-2%
88: Cc1ccc(OCCC(=O)Nc2ccc3c(c2)OCCCO3)cc1
    ·	-4%
89: CCOC(=O)C1CCCN(S(=O)(=O)c2ccc(OC)c3ccccc23)C1 (stereo not given)
    24%	-19%
90: CN(C)C(=O)CSc1nnc(-c2cnccn2)n1C
    7%	-2%
91: CC(=O)Nc1ccc(NC2=C(Cl)C(=O)c3ccccc3C2=O)cc1
    -7%	-21%
92: Cc1ccc(-n2c(O)cnc2Nc2nc(C)cc(C)n2)cc1
    4%	10%
93: CCCOC(=O)c1cccc(NC(=O)CSc2nnc3cc(C)c4ccccc4n23)c1
    ·	22%
94: CCCSc1nc2c(cnn2-c2ccccc2)c(=O)n1N
    -8%	-9%
95: CCC1(CC)NC(=O)N(CC(=O)OCC(=O)NC(=O)c2ccc(Cl)cc2)C1=O
    5%	8%
96: O=C(O)C1CCCCC1C(=O)Nc1nc(-c2ccc(Cl)s2)cs1 (stereo not given)
    5%	-10%
97: CCCN(CC(=O)Nc1ccccc1C)C(=O)c1ccc(Cl)c(S(=O)(=O)N2CCCC2)c1
    5%	-12%
98: O=C(NC1(C(F)(F)F)NC(=O)N(Cc2cccnc2)C1=O)c1cccs1 (stereo not given)
    0%	1%
99: CC(NC(=O)CN1C(=O)NC2(CCCCCC2)C1=O)c1ccccc1Cl (stereo not given)
    ·	-8%
100: CCn1c2ccccc2c2cc(NC(=O)CSc3nccc(=O)[nH]3)ccc21
    2%	-2%

# Quoted from above for reference:
# Under each structure – N370S GC mod	FEN1 inhibitor
88: Cc1ccc(OCCC(=O)Nc2ccc3c(c2)OCCCO3)cc1
    ·	-4%
89: CCOC(=O)C1CCCN(S(=O)(=O)c2ccc(OC)c3ccccc23)C1 (stereo not given)
    24%	-19%
90: CN(C)C(=O)CSc1nnc(-c2cnccn2)n1C
    7%	-2%

# Ordered by count of non-hydrogen atoms (smallest number first): part of the list above.
# Under each structure – N370S GC mod	FEN1 inhibitor
82: Cc1ccc(Cl)cc1NC(=O)CSC(N)=O
    9%	-3%
94: CCCSc1nc2c(cnn2-c2ccccc2)c(=O)n1N
    -8%	-9%
83: Fc1ccc(-c2nnc3ccc(N4CCc5ccccc5C4)nn23)cc1
    5%	7%

# (further entries)
# Under each structure – N370S GC mod	FEN1 inhibitor
101: Cc1csc(C(=O)O)c1-c1c(C)csc1C(=O)O
    3%	-1%
102: COc1ccc(C2C(C(C)=O)=C(C)Nc3ncnn32)cc1 (stereo not given)
    -4%	0%
103: COc1ccc(-c2cn(CCc3c[nH]c4ccccc34)nn2)cc1
    1%	?
104: CC(=Nc1cc(C(=O)c2ccccc2)ccc1N)C1=C(O)CC(C)(C)CC1=O
    -4%	-8%
105: CCO[C@@H]1OC(C(=O)NCc2ccccc2)=C[C@H](C2CC2)[C@H]1CCCO
    -12%	-1%
106: CCCS(=O)(=O)N1CCCC(C(=O)NCc2ccc3c(c2)OCO3)C1 (stereo not given)
    6%	-3%
107: CCOc1ccc(CCNC(=O)COC(=O)c2ccco2)cc1OCC
    ·	-1%
108: Fc1ccc(-c2ccc(Nc3cccc(F)c3)nn2)cc1
    2%	-16%

# Compound activity from PubChem.

# Not all compounds are listed, and most or all hits are left out here.
